Ecoli rRNA inh – selective bacterial rRNA inhibition in E. coli; E. coli WT GFP vs humanized-ribosome RFP mutants, fluorescence, 24 h; hits give low values; DMSO median 0, no signal -100; GFP signal change (wild-type ribosome), % (no concentration beside the values); 350,000 tested, 1.6% active;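 active = significant combined selectivity score with lowered wild-type GFP, culture density cut under 30%, mutant RFP and density less affected; inactive = any of these conditions unmet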; note: one replicate is shown; some compounds called inactive have numbers as strong as hits
ALR H2O2 inh – blocks human ALR sulfhydryl oxidase activity; P55789; purified ALR, DTT oxidation, H2O2 HRP-luminol luminescence; inhibition, % (no concentration beside the values); 290,000 tested, 3.8% active; AID 485317;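 active = mean and each replicate at 75% or more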;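 note: stock transfer was 7.5 nL into about 7.5 µL; 0% = neutral wells and 100% = wells with inactivated enzyme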
FGF22 binding – shifts melting point of recombinant human FGF22. Q9HCT0. recombinant FGF22 thermal shift, SYPRO orange fluorescence; percent of sucrose octasulfate shift, DMSO zero. calls only at 9.99 µM. 340,000 tested, 1.5% active;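 active = melting point raised past a set limit in the mean and every replicate; three in four hits are not shown here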
E coli growth – blocks Escherichia coli growth. OD600, 23 h; hits give low values. OD600 absorbance (no concentration beside the values). 330,000 tested, 0.21% active;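 active = OD600 absorbance below the run mean of sample wells minus 3.6 SD, in any replicate, cut at about 0.56 in these data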;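 note: stock transfer was 300 nL into about 60 µL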
Vif TR-FRET – HIV-1 Vif–A3G interaction blockers – biochemical, TR-FRET, GST-Vif 1-94, biotin-A3G peptide, dose response retest, primary screen (AID 1117319); TR-FRET GST-Vif / biotin-A3G peptide binding; higher % means a stronger effect; test concentration not given here; strong numbers were not always called active; 260,000 tested, 0.57% active; one-dose inhibition, %; IC50 in µM for titrated hits;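 active = above the screen mean plus three standard deviations and confirmed in dose response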;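 note: Vif residues 1-94 fused to GST binding biotinylated APOBEC3G peptide 110-148; 0% = full assay without inhibitor and 100% = GST in place of GST-Vif; retest series ran down from 100 µM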
AF4-AF9 inh – blocks AF4 peptide binding to human AF9. AlphaScreen, biotin-AF4 peptide binding to FLAG-AF9. inhibition, % at 10 µM. 350,000 tested, 0.47% active;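 active = every replicate reaching a set inhibition limit, whatever the replicate mean, cut at about 25% in these data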;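 note: 0% = plate neutral control median and 100% = total signal loss; the record names both 10 and 1 µM as test concentration; the first replicate is given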
Target sequence (P42568 whole entry, looked up): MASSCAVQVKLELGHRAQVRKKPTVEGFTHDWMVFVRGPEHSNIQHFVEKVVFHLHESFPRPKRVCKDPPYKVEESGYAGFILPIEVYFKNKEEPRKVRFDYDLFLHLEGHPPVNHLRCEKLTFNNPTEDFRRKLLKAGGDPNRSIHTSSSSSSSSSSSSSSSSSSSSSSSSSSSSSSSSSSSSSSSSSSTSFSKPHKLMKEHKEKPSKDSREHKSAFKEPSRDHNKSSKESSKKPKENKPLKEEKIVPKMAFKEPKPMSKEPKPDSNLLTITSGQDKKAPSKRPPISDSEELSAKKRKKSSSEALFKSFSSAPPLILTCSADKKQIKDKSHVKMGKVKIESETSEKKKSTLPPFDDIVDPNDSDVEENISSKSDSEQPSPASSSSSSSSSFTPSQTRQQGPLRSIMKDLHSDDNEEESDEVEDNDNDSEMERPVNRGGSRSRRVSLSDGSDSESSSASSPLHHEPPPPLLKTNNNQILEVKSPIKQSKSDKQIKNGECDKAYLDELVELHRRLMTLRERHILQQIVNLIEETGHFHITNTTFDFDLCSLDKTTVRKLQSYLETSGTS
HNF4A DNA FP – change in binding of human HNF4 alpha to DNA | P41235 | HNF4a-FITC DNA binding, fluorescence polarization, 1 h | activity change, % at 10 µM | 360,000 tested, 0.3% active; in the data active = activity change above about 30%, passing the limit was not always enough;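 note: controls were the assay level and a saturating level of protein; the project sought stronger binding though the title names inhibitors; some compounds called inactive have numbers as strong as hits; positive values seem to mean higher polarization but the record does not say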
Target sequence (P41235 whole entry, looked up): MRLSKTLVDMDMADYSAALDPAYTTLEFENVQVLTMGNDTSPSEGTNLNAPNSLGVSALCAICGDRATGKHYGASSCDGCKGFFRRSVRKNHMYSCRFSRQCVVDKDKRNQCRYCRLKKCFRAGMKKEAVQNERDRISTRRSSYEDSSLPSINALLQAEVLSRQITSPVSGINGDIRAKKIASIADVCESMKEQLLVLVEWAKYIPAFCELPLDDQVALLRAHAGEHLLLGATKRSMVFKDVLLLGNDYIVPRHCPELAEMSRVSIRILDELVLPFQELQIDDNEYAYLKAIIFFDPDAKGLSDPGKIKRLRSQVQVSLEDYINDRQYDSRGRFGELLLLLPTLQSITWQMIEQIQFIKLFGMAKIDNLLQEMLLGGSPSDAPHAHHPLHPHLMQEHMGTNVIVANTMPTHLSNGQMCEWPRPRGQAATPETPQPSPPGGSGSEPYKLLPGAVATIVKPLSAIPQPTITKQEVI
Ecoli rRNA inh OD600 – second read-out of Ecoli rRNA inh, no call of its own (marks repeat the call); OD600 change, %; measured here: OD600 growth;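 optical density of the mix in the first replicate; 0 = DMSO median and -100 = no signal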
Ecoli rRNA inh RFP – further read-out of Ecoli rRNA inh, marked with its call; RFP signal change, %; measured here: RFP humanized mutant strains;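 first replicate; 0 = DMSO median and -100 = no signal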
* hit, by the source's call; i = inactive; · = not tested or not shown; & = joins results of further samples; ! = not active in a repeat. A portion of the library; the hit share may differ from the screen's.

SMILES	Ecoli rRNA inh	Ecoli rRNA inh OD600	Ecoli rRNA inh RFP	ALR H2O2 inh	FGF22 binding	E coli growth	Vif TR-FRET	AF4-AF9 inh	HNF4A DNA FP
CC(C)c1ccc(N(C(=O)c2csnn2)C(C(=O)NC(C)(C)C)c2ccncc2)cc1 (stereo not drawn)	·	·	·	3	·	0.69	17%	·	-0.7
C[C@@H]1CN([C@H](C)CO)C(=O)c2cc(NC(=O)Nc3ccc(F)cc3)ccc2O[C@@H](C)CCCCO[C@H]1CN(C)C(=O)Nc1ccc(F)cc1	0	-5	-0.5	·	i	·	·	1.3	·
O=CN(Cc1nc2ccccc2[nH]1)c1ccc(C(=O)O)cc1	2	-13	0.2	·	i	0.68	3%	1.6	3.7
C=CCn1c(C)nnc1SCC(=O)Nc1cc(S(=O)(=O)N2CCCC2)ccc1Cl	3	1	0.7	·	i	0.69	4%	3.2	-0.6
CCOC(=O)CC1(CC)Oc2ccccc2N1S(=O)(=O)c1ccc(C)cc1 (stereo not drawn)	-7	-17	1.6	·	i	·	·	1.4	1.2
O=C(COC(=O)/C=C/c1cccc(F)c1)Nc1ncccn1	7	10	2.4	-6	i	0.7	24%	-13	-6.0
COc1cccc(CN(C)C[C@H]2OCc3cnnn3CCCC(=O)N([C@H](C)CO)C[C@@H]2C)c1	9&0	6&-1	0.9&-0.2	·	i	·	-1%	-1.1&-1.4	-2.4
CC(C)CCOC(=O)C1[C@H]2C(=O)N(Cc3cccs3)C[C@]23C=C[C@H]1O3 (stereo partly drawn)	·	·	·	5	·	·	2%	·	0.1
COc1ccc(COC(=O)C2CCN(C(=O)c3ccc(Cl)cc3)CC2)cc1F	·	·	·	·	i	0.7	·	-1.6	3.5
Cc1nc2cc(C(=O)OCC(=O)N(CC(C)C)C3CCS(=O)(=O)C3)ccc2n1-c1ccccc1 (stereo not drawn)	·	·	·	-10	·	0.71	4%	·	1.8
NCCCC[C@H]1CN=C(N)N1CC1CCCCC1	15	18	-0.2	0	i	·	·	2.4	-29
C[C@@H]1CN([C@@H](C)CO)S(=O)(=O)c2ccc(C3=CCCCC3)cc2O[C@H]1CN(C)C(=O)Cc1ccncc1	1	-1	-1.5	·	i	·	·	6.1	·
COC(=O)c1c(-c2cccnc2)csc1NC(=O)c1cc(C)on1	3	8	0.4	·	i	0.66	3%	2.4	24
CC1(C)CC(=O)C2=C(C1)Nc1[nH]c(=S)[nH]c(=O)c1C2c1ccccc1 (stereo not drawn)	·	·	·	37	·	0.67	21%	·	-6.5
Clc1ccc(C2NCCc3sccc32)cc1 (stereo not drawn)	12	14	1.0	-2	i	0.67	-2%	-1.4	1.2
C[C@H](CO)N1C[C@H](C)[C@H](CN(C)C(=O)Cc2ccccn2)Oc2ncc(-c3ccncc3)cc2C1=O	3	20	-5.7	·	i	·	·	-19	·
COc1ccc(CNC(=O)CSc2nccn(-c3ccc(F)c(F)c3)c2=O)cc1	8	12	0.8	·	i	0.71	·	12	2.0
CN(C)C1(CNC(=O)c2cccc(S(=O)(=O)NCc3ccccc3)c2)CCCCC1	1	-5	-2.9	1	i	0.66	0%	-9.3	2.6
Cc1ccc(S(=O)(=O)N2CCN(Cc3ccccc3)CC2)cc1	-1	-5	2.6	-2	i	0.69	-5%	0.5	1.1
O=C(NCCCCc1ccccc1)C1CC(c2ccccc2C(F)(F)F)=NO1 (stereo not drawn)	-25	-48	2.1	·	i	0.67	-5%	-37	-2.7
Cc1ccc(NC(=O)c2cnccn2)c(Br)c1	-6	-11	1.4	-10	i	0.64	·	2.6	2.8
CCN1[C@@H]2Cn3c(ccc(-c4ccccc4OC)c3=O)[C@H]1[C@@H](C(=O)N1CCOCC1)[C@@H]2CO	2	6	-6.9	·	i	·	·	-0.6	·
COc1ccc2oc(C)c(C(=O)Cn3ccnc3)c2c1	·	·	·	0	·	0.73	-1%	·	1.9
Cc1cc(C)cc(NC(=O)CN2CCc3cc4c(cc3C2C)OCCCO4)c1 (stereo not drawn)	-3	-52	-6.9	16	i	0.67	-8%	-0.6	0.3
COC(=O)c1cn(NC(=O)/C=C/c2ccc(OC)c(OC)c2)c(=O)c2ccccc12	·	·	·	-4	·	·	13%	·	-1.6
(further entries)
SMILES	Ecoli rRNA inh	Ecoli rRNA inh OD600	Ecoli rRNA inh RFP	ALR H2O2 inh	FGF22 binding	E coli growth	Vif TR-FRET	AF4-AF9 inh	HNF4A DNA FP
COc1ccc(-c2cc(C(=O)NC3CCCC3)c3ccccc3n2)cc1OC	·	·	·	-10	i	0.7	·	-1.9	1.9
O=C(c1cccc(NS(=O)(=O)c2ccc(Br)cc2)c1)N1CCCCC1	4	-3	-0.8	0	·	0.69	1%	-16	5.9
COCCn1cnc2c1c(=O)n(Cc1ccc(Br)cc1)c(=O)n2Cc1ccccc1	-9	-21	-1.6	-7	i	0.69	·	-1.0	-2.0
CN(C)CCCNC(=O)[C@@H]1[C@@H](CO)[C@@H]2Cn3c(ccc(-c4cccc(F)c4)c3=O)[C@@H]2N1C	2	5	-3.4	·	i	·	·	-0.9	·
COC(=O)[C@]12CCCCC=C1N(Cc1ccc3c(c1)OCO3)C(=O)[C@H](CC(=O)NCCc1ccccc1OC)C2	3	3	5.0	·	i	·	·	3.0	4.1
COC(=O)C1=C(C)N(C)C(C)=C(C(=O)OC)C1c1cccc(Br)c1	·	·	·	0	·	0.75	-4%	·	-1.2
O=C(CC1C(=O)NCCN1C(=O)Nc1ccc(F)cc1)Nc1ccc(F)cc1 (stereo not drawn)	·	·	·	-11	i	0.68	-5%	2.9	-1.4
Cc1nc(Sc2ccc(Br)cc2)c(C#N)c(C)c1[N+](=O)[O-]	1	4	-0.8	-5	i	0.7	·	-0.4	-6.5
Cc1c(-c2ccc(Br)cc2)[n+](=O)c2c(n1[O-])CCCC2	-2	-1	-0.6	-5	i	0.68	9%	-3.2	1.4
CC1CCN(S(=O)(=O)c2ccc3[nH]c(=O)[nH]c3c2)CC1	11	4	-0.3	-1	i	0.7	·	-5.1	0.9
O=c1cc(O)c2c(=O)n(-c3ccccc3)c3c(c2o1)CCCCC3	·	·	·	·	·	0.73	7%	·	-0.9
CCC(C)Sc1ccc(-c2nc3cc(C)ccn3c2NC2CCCCC2)cc1 (stereo not drawn)	-7	2	-13	·	i	0.72	·	-8.8&2.2	45*!
COc1ccc(OC)c(C2C(C#N)=C(N)Oc3cc(N)ccc32)c1 (stereo not drawn)	·	·	·	99*	·	0.69	-3%	·	3.9
Cc1nn(C)cc1S(=O)(=O)Nc1ccc(F)c(F)c1	10	7	1.3	-1	i	0.72	·	-0.6	-0.2
CC(C)OC(=O)CC(NC(=O)OC(C)(C)C)c1ccccc1 (stereo not drawn)	4	-2	-1.2	-18	i	0.68	-1%	-0.4	·
COc1ccccc1-c1coc2c(CN3CCCC(C)C3)c(O)ccc2c1=O (stereo not drawn)	3	6	1.1	-4	i	0.65	-11%	-0.1	1.5
CC1CCN(S(=O)(=O)c2ccc3c(c2)C(Cl)(Cl)C(=O)N3)CC1	16	5	6.1	·	i	·	9%	-0.5	-0.1
CCOC(=O)[C@@H]1[C@H]2COc3cc(OC)ccc3[C@@H]2N2C(=O)N(c3cccc(C)c3)C(=O)[C@]12C	4	7	1.2	0	i	·	·	·	3.7
CN(Cc1cccs1)C(=O)c1cc(S(=O)(=O)N2CCOCC2)ccc1F	3	6	-0.7	0	i	0.69	-12%	3.1	0.1
CNC(=O)c1cc2c(cn1)[nH]c1ccccc12	·	·	·	-4	i	0.64	·	-4.7	0.5
Cc1cc(C)c(NC(=O)COc2nncc3ccccc23)c(C)c1	8	11	6.7	-19	i	0.69	-11%	-4.6	0.5
O=C(Nc1cccc(C(=O)N2CCOCC2)c1)c1ncn[nH]1	·	·	·	-5	·	0.66	24%	·	1.8
CC(=O)Nc1cccc(OCCCOc2ccc([N+](=O)[O-])cc2)c1	3	-9	2.2	-1	i	0.71	17%	0.0	-2.4
Cc1cccc(C(=O)NC(NCCc2ccccc2)C(Cl)(Cl)Cl)c1 (stereo not drawn)	·	·	·	13	·	0.64	2%	·	8.3
CCCCCCN1C[C@@H](O)[C@H](n2cc(C3CC3)nn2)C[C@@H]1c1ccc(C)cc1	0	-15	1.9	·	i	·	·	-1.5	4.2

A draw from above in order of SMILES length, lowest first.
SMILES	Ecoli rRNA inh	Ecoli rRNA inh OD600	Ecoli rRNA inh RFP	ALR H2O2 inh	FGF22 binding	E coli growth	Vif TR-FRET	AF4-AF9 inh	HNF4A DNA FP
O=C(c1cccc(NS(=O)(=O)c2ccc(Br)cc2)c1)N1CCCCC1	4	-3	-0.8	0	·	0.69	1%	-16	5.9
O=C(CC1C(=O)NCCN1C(=O)Nc1ccc(F)cc1)Nc1ccc(F)cc1 (stereo not drawn)	·	·	·	-11	i	0.68	-5%	2.9	-1.4
CCCCCCN1C[C@@H](O)[C@H](n2cc(C3CC3)nn2)C[C@@H]1c1ccc(C)cc1	0	-15	1.9	·	i	·	·	-1.5	4.2

New compounds follow.
SMILES	Ecoli rRNA inh	Ecoli rRNA inh OD600	Ecoli rRNA inh RFP	ALR H2O2 inh	FGF22 binding	E coli growth	Vif TR-FRET	AF4-AF9 inh	HNF4A DNA FP
O=C1OCC/C1=C\c1ccc(O)cc1	0	-13	-5.8	98*	i	0.67	-1%	0.1	-4.7
O=C(O)c1cc(S(=O)(=O)N2CCCc3ccccc32)ccc1Cl	11	19	1.7	0	i	0.68	-2%	-0.2	-1.7
Cc1cc(NC(=O)CCC(=O)N(CC(=O)NCC2CCCO2)c2ccccc2C)no1 (stereo not drawn)	·	·	·	-3	·	0.71	5%	·	2.6
Cn1ncc(C#N)c1/N=C/N1CCCCCC1	·	·	·	-8	·	·	-3%	·	-5.2
O=c1[nH]cnc2c1sc1nc(-c3ccccc3)c3c(c12)CCCC3	11	1	0.6	-16	i	0.67	-24%	1.0	-1.2
O=C(CN1C(=O)NC2(CCCCCCC2)C1=O)Nc1ccc(OC(F)F)cc1	-26	-29	-7.4	-5	i	0.7	·	0.5	5.0
CCN(c1ccccc1)S(=O)(=O)c1ccc2c(c1)CC(C)N2C(=O)C1CC1 (stereo not drawn)	-3	-31	0.0	-2	i	0.64	·	0.1	-6.7
Cc1cc2nc(/C=C/c3cccnc3)[nH]c2cc1C	-28*	-17*	-6.3*	-14	i	0.64	·	-14	2.0
COc1ccc(S(=O)(=O)Nc2cccc3c2O[C@@H](CN(C)Cc2ccc(C(=O)Nc4ccccc4N)cc2)[C@H](C)CN([C@@H](C)CO)C3=O)cc1	-7	4	-3.0	·	i	·	·	-5.5	·
COc1ccc(/C=C2\SC(=O)NC2=S)cc1OC	7	-27	4.5	·	i	0.68	·	0.4	-1.5
Cc1nn(S(=O)(=O)c2ccc(Cl)cc2)c(C)c1S(=O)(=O)N1CCOCC1	7	0	-1.7	-8	i	0.68	·	-1.2	1.1
CS(=O)(=O)Nc1ccc2c(c1)[C@H]1C[C@H](CC(=O)NCCN3CCCCC3)O[C@@H](CO)[C@H]1O2	2	6	-0.3	·	i	·	·	0.7	·
O=C(C[C@H]1C[C@H]2c3cc(NC(=O)C4CCC4)ccc3O[C@H]2[C@H](CO)O1)NCCc1ccccc1	-4	4	-4.9	·	i	·	·	0.6	·
Cc1ccc2c(CN(C)Cc3ccccc3)cc(=O)oc2c1	-7	-37	-13	·	i	·	·	-1.5	0.2

Grouped by structure, the compounds so far with a COOH group (2)
SMILES	Ecoli rRNA inh	Ecoli rRNA inh OD600	Ecoli rRNA inh RFP	ALR H2O2 inh	FGF22 binding	E coli growth	Vif TR-FRET	AF4-AF9 inh	HNF4A DNA FP
O=CN(Cc1nc2ccccc2[nH]1)c1ccc(C(=O)O)cc1	2	-13	0.2	·	i	0.68	3%	1.6	3.7
O=C(O)c1cc(S(=O)(=O)N2CCCc3ccccc32)ccc1Cl	11	19	1.7	0	i	0.68	-2%	-0.2	-1.7
